# A1 apoptosis 2 = A1 inhibition read as caspase activation. MEF A1-2A-BIM cells, caspase-Glo luminescence, 3 h; percent of clofoctol response, DMSO zero. caspase activation, % (no concentration beside the values). 24,000 tested, under 10 active; in the data active means caspase activation above about 5.9%;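 further: wells of about 30 µL received 50 nL stock; the first replicate is given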
#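 Test system – A1-2A-BIM-expressing MEF cells · Input – 2500 cells/well · Medium – RPMI-1640 growth medium with 10% FBS · Compound dosing – 50 nL pinned compound · Timing – 3 h compound exposure at 37 °C · Technique – Caspase-Glo luminescence (DEVD substrate) · Evaluation – Caspase-3/7 activity from luminescence increase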
# * = called active by the depositor. The list is partial; rates above refer to the full screens.
# A first look (4 entries):
SMILES,A1 apoptosis 2
C[C@@H]1CN([C@@H](C)CO)C(=O)CCCn2cc(nn2)CO[C@@H]1CN(C)S(=O)(=O)c1ccc(-c2ccccc2)cc1,0.9
CC(C)NC(=O)Nc1ccc2c(c1)C(=O)N([C@H](C)CO)C[C@@H](C)[C@@H](CN(C)CC1CCCCC1)O2,0.7
C[C@@H]1CN([C@@H](C)CO)C(=O)CCCn2cc(nn2)CO[C@@H]1CN(C)S(=O)(=O)c1ccccc1F,-0.1
C[C@@H]1CN([C@@H](C)CO)C(=O)Cc2cc(NC(=O)Nc3ccc(F)cc3)ccc2O[C@H]1CN(C)Cc1ccc(Oc2ccccc2)cc1,-1.1

# Results (from the top)
SMILES,A1 apoptosis 2
C[C@@H]1CN([C@@H](C)CO)C(=O)CCCn2cc(nn2)CO[C@@H]1CN(C)S(=O)(=O)c1ccc(-c2ccccc2)cc1,0.9
CC(C)NC(=O)Nc1ccc2c(c1)C(=O)N([C@H](C)CO)C[C@@H](C)[C@@H](CN(C)CC1CCCCC1)O2,0.7
C[C@@H]1CN([C@@H](C)CO)C(=O)CCCn2cc(nn2)CO[C@@H]1CN(C)S(=O)(=O)c1ccccc1F,-0.1
C[C@@H]1CN([C@@H](C)CO)C(=O)Cc2cc(NC(=O)Nc3ccc(F)cc3)ccc2O[C@H]1CN(C)Cc1ccc(Oc2ccccc2)cc1,-1.1
Cc1cccc(S(=O)(=O)N(C)C[C@H]2OCc3cnnn3CCCC(=O)N([C@@H](C)CO)C[C@@H]2C)c1,-0.2
Cc1noc(C)c1NC(=O)Nc1ccc2c(c1)CC(=O)N([C@H](C)CO)C[C@@H](C)[C@H](CN(C)Cc1ccc(Cl)c(Cl)c1)O2,-0.5
C[C@H]1CN([C@@H](C)CO)C(=O)c2cccc(NS(=O)(=O)c3cn(C)cn3)c2O[C@@H]1CN(C)Cc1ccc(-c2ccccc2)cc1,-1.2
COc1ccc(S(=O)(=O)N(C)C[C@H]2Oc3c(NC(=O)c4cnccn4)cccc3C(=O)N([C@H](C)CO)C[C@H]2C)cc1,-1.1
CC(C)NC(=O)N(C)C[C@H]1OCCCC[C@@H](C)Oc2ccc(NC(=O)c3ccccc3)cc2C(=O)N([C@@H](C)CO)C[C@H]1C,-0.8
C[C@@H]1CN([C@H](C)CO)C(=O)c2cccc(NC(=O)C3CC3)c2O[C@@H]1CN(C)Cc1ccccc1,0.9
COc1ccc(CN(C)C[C@H]2Oc3c(NC(=O)Nc4ccc(F)cc4)cccc3C(=O)N([C@@H](C)CO)C[C@H]2C)cc1,-0.3
Cc1noc(C)c1NC(=O)Nc1cccc2c1O[C@@H](CN(C)C(=O)Nc1c(C)noc1C)[C@@H](C)CN([C@@H](C)CO)C2=O,-0.4
C[C@H](CO)N1C[C@H](C)[C@@H](CN(C)S(=O)(=O)c2cccs2)Oc2ccc(NC(=O)Nc3cccc4ccccc34)cc2CC1=O,-0.7
CNC[C@@H]1Oc2ccc(NC(=O)NC3CCCCC3)cc2C(=O)N([C@H](C)CO)C[C@H]1C,-0.8
C[C@H](CO)N1C[C@H](C)[C@H](CN(C)C)Oc2c(NC(=O)c3ccc(-c4nccs4)cc3)cccc2C1=O,0.5
C[C@H](CO)N1C[C@H](C)[C@H](CN(C)C(=O)Nc2ccc3c(c2)OCO3)Oc2ccc(NC(=O)Nc3cccc4ccccc34)cc2C1=O,-1.3
COc1ccc(S(=O)(=O)Nc2cccc3c2O[C@@H](CN(C)CC2CC2)[C@H](C)CN([C@@H](C)CO)C3=O)cc1,0.8
COc1ccc(CN(C)C[C@@H]2Oc3ccc(NC(=O)Cn4cnnn4)cc3C(=O)N([C@H](C)CO)C[C@@H]2C)cc1,1.4
COc1ccc(CN(C)C[C@H]2Oc3ccc(NC(=O)Nc4ccc(F)cc4)cc3CC(=O)N([C@@H](C)CO)C[C@H]2C)cc1,1.7
COc1ccc(NC(=O)Nc2cccc3c2O[C@@H](CN(C)C(=O)Nc2ccc(OC)cc2)[C@H](C)CN([C@H](C)CO)C3=O)cc1,0.2
CNC[C@@H]1OCCCC[C@H](C)Oc2ccc(NS(=O)(=O)c3cn(C)cn3)cc2C(=O)N([C@@H](C)CO)C[C@@H]1C,-0.2
C[C@H]1CN([C@@H](C)CO)C(=O)CCCn2nncc2CO[C@H]1CN(C)S(=O)(=O)c1ccc(Oc2ccccc2)nc1,0.7
COc1ccc(CN(C)C[C@H]2OCCCC[C@H](C)Oc3ccc(NS(C)(=O)=O)cc3C(=O)N([C@@H](C)CO)C[C@@H]2C)cc1,-1.1
C[C@@H]1CN([C@@H](C)CO)C(=O)c2cccc(NC(=O)NC3CCCCC3)c2O[C@@H]1CN(C)S(=O)(=O)c1cn(C)cn1,-0.2
C[C@H]1CN([C@@H](C)CO)C(=O)c2cccc(NC(=O)Nc3ccc(F)cc3)c2O[C@@H]1CN(C)C,-2.5
C[C@H]1CN([C@@H](C)CO)C(=O)c2cccc(NC(=O)CCCCCC(=O)Nc3ccccc3N)c2O[C@@H]1CN(C)S(=O)(=O)c1ccc(F)cc1,1.5
Cc1ccc(S(=O)(=O)N(C)C[C@H]2Oc3c(NC(=O)c4ccc(-c5nccs5)cc4)cccc3C(=O)N([C@H](C)CO)C[C@@H]2C)cc1,0.2
C[C@@H]1CN([C@@H](C)CO)C(=O)c2cccc(NC(=O)c3ccc(-c4nccs4)cc3)c2O[C@H]1CN(C)Cc1ccc(C(F)(F)F)cc1,-0.8
CC(C)NC(=O)Nc1ccc2c(c1)C(=O)N([C@@H](C)CO)C[C@@H](C)[C@@H](CN(C)S(=O)(=O)c1cn(C)cn1)OCCCC[C@H](C)O2,0.2
C[C@H]1CN([C@@H](C)CO)C(=O)c2cccc(NC(=O)c3nc4ccccc4s3)c2O[C@H]1CN(C)Cc1ccc(C(F)(F)F)cc1,0.9
Cc1cc(C)cc(N2C(=O)CS(=O)(=O)C2c2cccc([N+](=O)[O-])c2)c1 (configuration not stated),-0.6
CC(C)NC(=O)Nc1ccc2c(c1)C(=O)N([C@H](C)CO)C[C@H](C)[C@@H](CN(C)C)O2,-1.3
C[C@H]1CN([C@@H](C)CO)C(=O)c2cc(NS(=O)(=O)c3cccs3)ccc2O[C@H]1CN(C)C(=O)Nc1ccc(F)cc1,-1.1
COC(=O)N(C)C[C@H]1OCc2cn(nn2)CCCC(=O)N([C@@H](C)CO)C[C@H]1C,0.4
CNC[C@H]1Oc2c(NC(=O)Nc3ccc(C(F)(F)F)cc3)cccc2C(=O)N([C@H](C)CO)C[C@H]1C,-0.1
C[C@@H]1CN([C@H](C)CO)C(=O)c2cc(NS(C)(=O)=O)ccc2O[C@@H]1CN(C)C,1.3
Cc1noc(C)c1NC(=O)N(C)C[C@H]1Oc2ccc(NC(=O)Nc3cccc4ccccc34)cc2C(=O)N([C@@H](C)CO)C[C@@H]1C,-0.7
CNC[C@@H]1Oc2ccc(NC(=O)CCC(F)(F)F)cc2CC(=O)N([C@H](C)CO)C[C@@H]1C,0.2
Cc1noc(C)c1NC(=O)N(C)C[C@@H]1OCCCC[C@H](C)Oc2ccc(NS(=O)(=O)c3c(C)noc3C)cc2C(=O)N([C@@H](C)CO)C[C@H]1C,-0.5
C[C@H]1CN([C@@H](C)CO)C(=O)c2cc(NC(=O)Nc3ccccc3)ccc2O[C@H]1CN(C)C(=O)Nc1ccccc1,-0.6
O=C(Nc1ccccc1)N[C@H](Cc1ccccc1)Cn1cc(CN2C(=O)COC[C@H]2c2ccccc2)nn1,-0.1
C[C@H]1CN([C@@H](C)CO)C(=O)c2cc(NS(=O)(=O)c3ccc(Cl)cc3)ccc2O[C@@H]1CN(C)Cc1ccc(C(F)(F)F)cc1,-0.9
C[C@@H]1CCCCO[C@@H](CN(C)S(=O)(=O)c2ccc(Cl)cc2)[C@@H](C)CN([C@H](C)CO)C(=O)c2cc(NC(=O)c3ccccc3)ccc2O1,0.4
Cc1ccc(S(=O)(=O)N(C)C[C@H]2OCCCC[C@H](C)Oc3ccc(NC(=O)Cc4ccccc4)cc3C(=O)N([C@H](C)CO)C[C@@H]2C)cc1,-0.5
C[C@@H]1CN([C@H](C)CO)C(=O)c2cccc(NS(=O)(=O)c3ccc(Cl)cc3)c2O[C@@H]1CN(C)Cc1ccncc1,-0.6
C[C@H]1CN([C@@H](C)CO)C(=O)Cc2cc(NC(=O)CCN3CCOCC3)ccc2O[C@@H]1CN(C)C(=O)Nc1ccccc1,1.0
Cc1noc(C)c1NC(=O)N(C)C[C@@H]1Oc2ccc(NC(=O)c3ccncc3)cc2CC(=O)N([C@H](C)CO)C[C@@H]1C,-0.9
COCCOC(=O)N1C(=O)[C@@]2(c3cc(C#CCC(C(=O)OC)C(=O)OC)ccc31)[C@H](C(N)=O)[C@H]1C(=O)O[C@H](c3ccccc3)[C@H](c3ccccc3)N1[C@@H]2c1ccccc1OCCO,1.3
COc1ccc(NC(=O)Nc2ccc3c(c2)C(=O)N([C@H](C)CO)C[C@H](C)[C@H](CN(C)Cc2ccc4c(c2)OCO4)OCCCC[C@H](C)O3)cc1,0.1
C[C@H]1CCCCO[C@H](CN(C)C)[C@@H](C)CN([C@@H](C)CO)C(=O)c2cc(NS(=O)(=O)c3ccc(Cl)cc3)ccc2O1,1.0
Cc1noc(C)c1S(=O)(=O)N(C)C[C@H]1Oc2ccc(NS(=O)(=O)c3ccc(Cl)cc3)cc2C(=O)N([C@H](C)CO)C[C@H]1C,0.2
CC(=O)CC(=O)N1C(=O)N(C)[C@@]2(C)Oc3ccccc3[C@@H]1[C@H]2COC(=O)c1ccccc1,-0.1
CNC[C@@H]1OCCCC[C@H](C)Oc2ccc(NS(=O)(=O)c3c(C)noc3C)cc2C(=O)N([C@@H](C)CO)C[C@H]1C,0.9
COc1ccc(S(=O)(=O)N(C)C[C@H]2Oc3ccc(NS(=O)(=O)c4cn(C)cn4)cc3C(=O)N([C@@H](C)CO)C[C@H]2C)cc1,0.2
Cc1ccc(S(=O)(=O)N(C)C[C@H]2Oc3ccc(N(C)C)cc3C(=O)N([C@@H](C)CO)C[C@@H]2C)cc1,-0.2
C[C@@H]1CN([C@@H](C)CO)C(=O)c2cc(NC(=O)C3CC3)ccc2O[C@H]1CN(C)Cc1ccc(Cl)c(Cl)c1,1.7
Cc1ccc(S(=O)(=O)Nc2ccc3c(c2)CC(=O)N([C@H](C)CO)C[C@H](C)[C@@H](CN(C)Cc2ccccc2)O3)cc1,-0.5
C[C@@H]1CN([C@H](C)CO)C(=O)c2cc(NS(=O)(=O)c3ccc(Cl)cc3)ccc2O[C@@H]1CN(C)S(C)(=O)=O,0.2
CC(C)NC(=O)N(C)C[C@@H]1OCCCC[C@H](C)Oc2ccc(NC(=O)Nc3ccc(F)cc3)cc2C(=O)N([C@@H](C)CO)C[C@@H]1C,0.2
C[C@@H]1CCCCO[C@@H](CN(C)Cc2ccc(C(=O)Nc3ccccc3N)cc2)[C@@H](C)CN([C@H](C)CO)C(=O)c2cc(NC(=O)Nc3cccc4ccccc34)ccc2O1,-1.9

# Sorted by heavy-atom count (rising): part of the list above.
SMILES,A1 apoptosis 2
C[C@@H]1CN([C@H](C)CO)C(=O)c2cc(NS(=O)(=O)c3ccc(Cl)cc3)ccc2O[C@@H]1CN(C)S(C)(=O)=O,0.2
C[C@H]1CN([C@@H](C)CO)C(=O)c2cc(NS(=O)(=O)c3ccc(Cl)cc3)ccc2O[C@@H]1CN(C)Cc1ccc(C(F)(F)F)cc1,-0.9
C[C@@H]1CCCCO[C@@H](CN(C)Cc2ccc(C(=O)Nc3ccccc3N)cc2)[C@@H](C)CN([C@H](C)CO)C(=O)c2cc(NC(=O)Nc3cccc4ccccc34)ccc2O1,-1.9

# Given with bars between the fields: 3 of the compounds above.
SMILES | A1 apoptosis 2
C[C@@H]1CCCCO[C@@H](CN(C)S(=O)(=O)c2ccc(Cl)cc2)[C@@H](C)CN([C@H](C)CO)C(=O)c2cc(NC(=O)c3ccccc3)ccc2O1 | 0.4
Cc1ccc(S(=O)(=O)N(C)C[C@H]2OCCCC[C@H](C)Oc3ccc(NC(=O)Cc4ccccc4)cc3C(=O)N([C@H](C)CO)C[C@@H]2C)cc1 | -0.5
C[C@@H]1CN([C@H](C)CO)C(=O)c2cccc(NS(=O)(=O)c3ccc(Cl)cc3)c2O[C@@H]1CN(C)Cc1ccncc1 | -0.6

# (listing goes on)
SMILES,A1 apoptosis 2
C[C@H]1CCCCO[C@@H](CN(C)Cc2ccncc2)[C@@H](C)CN([C@@H](C)CO)C(=O)c2cc(NC(=O)C3CCCCC3)ccc2O1,1.5
C[C@H](CO)N1C[C@H](C)[C@H](CN(C)S(=O)(=O)c2cn(C)cn2)Oc2ccc(NS(C)(=O)=O)cc2CC1=O,0.6
C[C@H]1CN([C@@H](C)CO)C(=O)Cc2cc(NC(=O)CCC(F)(F)F)ccc2O[C@H]1CN(C)C(=O)Nc1ccc(C(F)(F)F)cc1,0.0
N#Cc1ccc(/C=N/NC(=O)c2cccc(C(=O)NO)c2)cc1,-0.7
Cc1noc(C)c1NC(=O)N(C)C[C@@H]1OCCCC[C@@H](C)Oc2ccc(NC(=O)Nc3ccc(F)cc3)cc2C(=O)N([C@H](C)CO)C[C@H]1C,0.0
N#Cc1ccc(/C=N/NC(=O)CCCCCCC(=O)Nc2ccccc2O)cc1,-0.7
C[C@@H]1CN([C@@H](C)CO)C(=O)c2cccc(NC(=O)NC3CCCCC3)c2O[C@@H]1CN(C)C(=O)Nc1ccc(F)cc1,-1.3
CC(C)NC(=O)N(C)C[C@@H]1Oc2c(NC(=O)c3cnccn3)cccc2C(=O)N([C@H](C)CO)C[C@H]1C,-1.2
C[C@H](CO)N1C[C@H](C)[C@@H](CN(C)Cc2ccc(C(=O)Nc3ccccc3N)cc2)Oc2c(NS(=O)(=O)c3ccc(F)cc3)cccc2C1=O,1.2
C[C@H](CO)N1C[C@H](C)[C@@H](CN(C)Cc2ccc(Cl)c(Cl)c2)Oc2c(NC(=O)C3CCOCC3)cccc2C1=O,-0.7
C[C@@H]1CCCCO[C@H](CN(C)S(=O)(=O)c2ccc(Cl)cc2)[C@@H](C)CN([C@H](C)CO)C(=O)c2cc(NS(=O)(=O)c3ccc(F)cc3)ccc2O1,0.6
C[C@H](CO)N1C[C@H](C)[C@H](CN(C)Cc2ccncc2)OCCCC[C@H](C)Oc2ccc(NS(=O)(=O)c3cccs3)cc2C1=O,1.1
